GIV Gai3 FP – blocks GIV peptide binding to rat Galpha-i3. Galpha-i3/FITC-GIV peptide fluorescence polarization, 90 min; stronger effect = lower value; scaled: aluminum fluoride 0%, vehicle 100%. percent of control (FP), % (no concentration beside the values). hit rate 0.42% among 210,000. AID 1224905;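 active = replicate mean at 85% of control or lower, very high polarization wells dropped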;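 also: wells of about 15 µL received 100 nL stock; the first replicate is given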
Target sequence (P08753 whole entry, looked up): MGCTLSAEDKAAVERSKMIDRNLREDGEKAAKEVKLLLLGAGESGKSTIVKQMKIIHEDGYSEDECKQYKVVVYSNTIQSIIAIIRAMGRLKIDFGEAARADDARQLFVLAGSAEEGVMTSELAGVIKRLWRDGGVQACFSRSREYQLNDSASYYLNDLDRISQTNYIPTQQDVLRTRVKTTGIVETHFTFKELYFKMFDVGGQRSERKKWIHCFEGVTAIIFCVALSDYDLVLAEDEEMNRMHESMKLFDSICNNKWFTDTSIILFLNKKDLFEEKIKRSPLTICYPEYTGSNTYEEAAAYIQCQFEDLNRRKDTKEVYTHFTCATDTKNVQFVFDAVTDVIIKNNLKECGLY
HCMV NEC inh – inhibitors of HCMV UL50-UL53 nuclear egress complex interaction. HTRF UL50-UL53 interaction, normalized percent inhibition. inhibition, % (concentration not given with the values). hit rate 0.15% among 190,000. AID 1918969;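 active = both replicates at 50% or more, plus weaker picks with an unusually low signal ratio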;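 also: stock transfer was 100 nL into about 20 µL; 0% = negative control wells and 100% = wells with untagged competitor protein; inactives centre near -12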
Sa growth 42C – blocks Staphylococcus aureus growth; S. aureus RN4220 growth, OD600, 20 h, 42 °C; stronger effect = lower value; AID 720641; hit rate 0.53% among 170,000; relative growth, % (no concentration beside the values);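 active = growth at 42 °C up to 50% and 20 or more points under that at 30 °C, or under 10% at both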;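 also: 300 nL library stock went into each well; scaled to the means of positive and negative controls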
Sa growth 42C second temp – second read-out of Sa growth 42C, no call of its own (marks repeat the call); relative growth, %; measured here: growth at 30 °C;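 optical density after 20 h as mean of two plates; 100% = untreated growth and lower means inhibition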
* = called active by the depositor; / = no result given; & = joins results of further samples.

no. | canonical_smiles | GIV Gai3 FP | HCMV NEC inh
1 | O=C(O)c1cccc(Nc2nc3ccccc3n3cnnc23)c1 | 103 | 1
2 | N#CC(C(N)=O)C(=S)Nc1ccccc1 (configuration not stated) | / | 8
3 | COc1ccccc1-c1nn2c(-c3ccc4ccccc4n3)nnc2s1 | 111 | -38
4 | COc1ccc(OC)c(-c2cc(C(N)=O)on2)c1 | 98 | /
5 | Cc1ccc(CSCc2ccc(C(=O)NC3CCCC3)o2)cc1 | 102 | /
6 | N#CC(c1ccccc1)c1ccccn1 (configuration not stated) | 104 | -4
7 | O=c1nc(N2CCCCC2)ccn1-c1nc(-c2ccccc2)oc1-c1ccccc1 | 104 | -25
8 | CCN(CC)C(=O)C1=C(C)Nc2nc3ccccc3n2C1c1cc(Br)ccc1OC (configuration not stated) | 102 | -28

no. | Sa growth 42C | Sa growth 42C second temp
1 | 99 | 95
2 | 82 | 78
3 | / | /
4 | 93 | 84
5 | 127 | 92
6 | 106 | 111
7 | 90 | 89
8 | 86 | 89

(further entries)
no. | canonical_smiles | GIV Gai3 FP | HCMV NEC inh
9 | O=c1[nH]c(CSc2ncnc3sccc23)nc2sc3c(c12)CCCC3 | / | -2
10 | O=C(NCc1cccs1)c1ccccc1NC(=O)C(F)(F)F | / | 7
11 | COc1cccc(-n2ccnc2SCC(=O)Nc2cccc3ccccc23)c1 | 100 | /
12 | Cc1ccc(OCC(O)CN2C(=O)NC(C)(C)C2=O)c(Cl)c1 (configuration not stated) | 103 | -2
13 | Cc1ccc(C)c(Cn2c(=O)n(CCCC(=O)NCCc3ccc(Cl)cc3)c(=O)c3ccccc32)c1 | 103 | -9
14 | Cc1c(C(=O)NCc2ccccc2Cl)sc2ncnc(N(C)C3CCCCC3)c12 | 104 | /
15 | c1ccc(-c2csc3ncnc(NCCN4CCOCC4)c23)cc1 | 103 | 5
16 | CC(NC1CCCCCCC1)C(=O)Nc1ccc(S(N)(=O)=O)cc1 (configuration not stated) | / | -14

no. | Sa growth 42C | Sa growth 42C second temp
9 | 99 | 97
10 | 82 | 79
11 | 96 | 101
12 | 97 | 79
13 | 109 | 86
14 | 122 | 89
15 | 105 | 100
16 | 104 | 99

The listing continues.
no. | canonical_smiles | GIV Gai3 FP | HCMV NEC inh
17 | CCC(C)NC(=O)CSc1nc2ccsc2c(=O)n1Cc1ccc(OC)cc1 (configuration not stated) | 99 | /
18 | CCOC(=O)NC(=S)c1ccc(OC)cc1 | 103 | -60
19 | COc1cccc(CNC(=O)CC(c2ccc(C)cc2)N2Cc3ccccc3C2=O)c1 (configuration not stated) | 103 | /
20 | CC1CCN(C(=O)COC(=O)c2ccc(OC(F)(F)F)cc2)CC1 | / | -26
21 | C/C(N)=C(/C#N)C(=O)CSc1cccc[n+]1[O-] | / | -6
22 | O=C(NCCC1=CCCCC1)C1COc2ccccc2O1 (configuration not stated) | / | -5
23 | CC1(C)CC2CC(C)(CN2C(=O)COC(=O)c2ccccc2)C1 (configuration not stated) | / | -1
24 | CCOC(=O)N1CCN(C(=O)CN(c2cc(C(F)(F)F)ccc2Cl)S(C)(=O)=O)CC1 | 106 | /

no. | Sa growth 42C | Sa growth 42C second temp
17 | 86 | 92
18 | 96 | 78
19 | 129 | 87
20 | 121 | 84
21 | 84 | 92
22 | 134 | 102
23 | 87 | 91
24 | 101 | 82

Next section
no. | canonical_smiles | GIV Gai3 FP | HCMV NEC inh
25 | CN(C)c1ncnc2c1c(-c1ccccc1)cn2-c1ccc(Cl)cc1 | 102 | -19
26 | CSc1c(-c2ccccn2)c(N)nn1C(=O)C1CC1 | 101 | -3
27 | Cc1ccc2oc(=O)c3cnn(CC(=O)N4CCN(c5ccc(F)cc5)CC4)c3c2c1 | 101 | -30
28 | COCCCN(Cc1ccco1)C(=O)c1cc2c(s1)-c1ccccc1OC2 | 101 | -46
29 | Clc1ccc(-c2csc3ncnc(NCc4ccccn4)c23)cc1 | 104 | -28
30 | Cc1ccc(NC(=O)c2ccc(=O)n(CC(=O)Nc3cccc(C)c3)n2)cc1 | 98 | /
31 | CC(Nc1ccc(-n2cnnn2)cc1)C(=O)Nc1ccc2c(c1)OCCO2 (configuration not stated) | / | 9
32 | NC(=O)CSc1nc(-c2ccccc2)cs1 | / | -21

no. | Sa growth 42C | Sa growth 42C second temp
25 | / | /
26 | 110 | 84
27 | 108 | 87
28 | 107 | 87
29 | / | /
30 | 114 | 85
31 | 104 | 98
32 | 102 | 99

(cont.)
no. | canonical_smiles | GIV Gai3 FP | HCMV NEC inh
33 | Cc1ccc(-c2noc(-c3cn(Cc4ccc(NC(=O)Nc5ccccc5)cc4)cn3)n2)cc1 | 102 | -23
34 | CCC(C)C(NC(N)=O)C(=O)Nc1cccc(Cl)c1 (configuration not stated) | / | -21
35 | COc1ccc2nc3sc(C(=O)O)cc3cc2c1 | 107 | /
36 | Cc1nn(C)c(C)c1CNC(=O)c1nnc(C(=O)Nc2cccc(Cl)c2)s1 | 105 | -32
37 | CCCN1CCc2nc(N3CCN(CC)CC3)ncc2C1 | 105 | /
38 | N#Cc1cccc(NC(=O)C2CCN(S(=O)(=O)c3ccc4c(c3)CCCN4C(=O)C3CCC3)CC2)c1 | 105 | /
39 | COc1ccc(NC(=O)/C(C#N)=C/c2ccc3c(c2)n(C)c(=O)n3C)cc1 | / | -19
40 | Cc1ccc2c(c1)c(=O)c(C(=O)O)cn2C | 103 | /

no. | Sa growth 42C | Sa growth 42C second temp
33 | / | /
34 | 94 | 80
35 | 111 | 89
36 | / | /
37 | 90 | 93
38 | 101 | 74
39 | 113 | 88
40 | 104 | 91

The results go on.
no. | canonical_smiles | GIV Gai3 FP | HCMV NEC inh
41 | O=C(NCCSC1=NCCN1)c1cccnc1Oc1ccccc1 | 96 | /
42 | CCOc1ccc(S(=O)(=O)N2CCC(N3CCN(Cc4ccc(C)cc4)C(=O)C3=O)CC2)cc1 | 100 | /
43 | COc1ccccc1Nc1nn2c(=O)c3ccc(C(=O)N4CCCC(C)C4)cc3nc2s1 (configuration not stated) | 98 | 3
44 | CN(C)C(CNC(=O)c1ccc(S(=O)(=O)N2CCCc3ccccc32)cc1)c1ccco1 (configuration not stated) | / | 3
45 | COc1ccc(-c2cc(C(=O)N3CCCCC3C)no2)cc1OC (configuration not stated) | 103 | -14
46 | Cc1ccc(C)c(NC(=O)N2CC=C(c3c[nH]c4ccccc34)CC2)c1 | 251&137 | 0
47 | CC(C)Cn1c(=O)c2ccccc2n2c(=O)n(CC(=O)Nc3ccc4c(c3)OCCO4)nc12 | 103 | 25
48 | C=CCN1CC(c2nc3ccccc3n2CC(O)COc2ccc(Cl)c(C)c2)CC1=O (configuration not stated) | 100 | 7

no. | Sa growth 42C | Sa growth 42C second temp
41 | 84 | 82
42 | 95 | 86
43 | 102 | 87
44 | 102 | 100
45 | 91 | 90
46 | 130 | 67
47 | / | /
48 | / | /

Continuation:
no. | canonical_smiles | GIV Gai3 FP | HCMV NEC inh
49 | COc1ccc(S(=O)(=O)Nc2ccccc2C(=O)NCc2ccco2)cc1OC | 102 | -14
50 | O=C(N/N=C/c1cc2c3c(c1O)CCCN3CCC2)c1ccncc1 | 210 | -69
51 | CCOC(=O)c1c(Oc2ccc(C(C)=O)cc2)nnc(-c2ccccc2)c1-c1ccccc1 | 103 | -25
52 | Cc1ccc(Cn2c(=O)c(N3CCC(C(=O)NCCN4CCOCC4)CC3)nc3ccccc32)cc1 | 100 | 1
53 | CCS(=O)(=O)Nc1ccccc1-c1ccccc1 | 105 | -32
54 | CCCn1cnc2ccccc21 | / | 2
55 | COC(=O)c1c(COC(=O)c2ccc(NC(=O)c3ccco3)cc2)nc2ccccc2c1C | / | -27
56 | C=C1c2ccccc2C(=O)N1c1ccc(C(F)(F)F)cc1 | 103 | -9

no. | Sa growth 42C | Sa growth 42C second temp
49 | 128 | 93
50 | 46 | 10
51 | 109 | 95
52 | / | /
53 | 104 | 99
54 | 119 | 94
55 | 95 | 78
56 | 89 | 83

Next section, starting with the last 2 of the part before.
no. | canonical_smiles | GIV Gai3 FP | HCMV NEC inh
55 | COC(=O)c1c(COC(=O)c2ccc(NC(=O)c3ccco3)cc2)nc2ccccc2c1C | / | -27
56 | C=C1c2ccccc2C(=O)N1c1ccc(C(F)(F)F)cc1 | 103 | -9
57 | O=C(c1cc(-c2cccnc2)n(-c2ccccc2)n1)N1CCN(c2ccccc2)CC1 | 107 | -19
58 | O=C(Cc1cccs1)Nc1nnc(Cc2ccccc2)s1 | / | 1
59 | O=C(O)CN1C(=O)CC(Cc2ccccc2)C1=O (configuration not stated) | 99 | -11
60 | COc1ccc(C)cc1NC(=O)CSc1nc(=O)n(Cc2ccncc2)c2c1CCC2 | 102&109 | /
61 | CC(C)Oc1ccc(CNC(=O)c2cnc3sc(N4CCCCC4)nn3c2=O)cc1 | 102 | /
62 | CN(C(=O)CSc1nnc(-c2cccnc2)o1)c1ccccc1 | 101 | 11
63 | CCN(C(=O)CSc1nnc(Cn2nnc3ccccc32)o1)c1nc(-c2ccccc2)cs1 | 101 | -7
64 | O=S(=O)(c1ccc(NCC2CCCO2)nc1)N1CCC(Cc2ccccc2)CC1 (configuration not stated) | / | -22

no. | Sa growth 42C | Sa growth 42C second temp
55 | 95 | 78
56 | 89 | 83
57 | / | /
58 | 115 | 71
59 | 108 | 87
60 | 95 | 95
61 | 104 | 93
62 | / | /
63 | 111 | 82
64 | 99 | 98

Other results.
no. | canonical_smiles | GIV Gai3 FP | HCMV NEC inh
65 | CC(CC(=O)Oc1ccc(C#N)cc1)S(=O)(=O)c1ccc(Cl)cc1 (configuration not stated) | 103 | 2
66 | CCOCCOC(=O)C1=C(C)NC2=C(C(=O)CC(c3ccccc3)C2)C1c1ccc(Br)cc1 (configuration not stated) | 109 | 10
67 | COc1cccc(C(=O)N2CCC(C(=O)N3CCOCC3)CC2)c1 | / | 5
68 | COC(=O)c1c(CSc2nnc(-c3cc(OC)c(OC)c(OC)c3)o2)nc2ccccc2c1C | / | -16
69 | Cc1ccc(C)c(N=C2SCCCN2C(=O)c2ccc(C#N)cc2)c1 | / | -10
70 | Cc1ccc(N2C(=O)NC(NS(=O)(=O)c3ccccc3)(C(F)(F)F)C2=O)cc1C (configuration not stated) | 94 | 52
71 | Cn1c(=O)n(C)c2cc(S(=O)(=O)NC3CCCCC3)ccc21 | 103 | /
72 | CNCCc1cnc(CCC(c2ccccc2)c2ccccc2)[nH]1 | 100 | -16

no. | Sa growth 42C | Sa growth 42C second temp
65 | 103 | 79
66 | / | /
67 | 108 | 89
68 | 80 | 91
69 | 103 | 88
70 | 97 | 93
71 | 102 | 85
72 | / | /

New compounds follow:
no. | canonical_smiles | GIV Gai3 FP | HCMV NEC inh
73 | COc1ccc(C2C(C(=O)c3ccccc3)C(=O)CC(C)(O)C2C(=O)c2ccccc2)cc1 (configuration not stated) | 96 | -14
74 | CCc1ccc(N=Cc2c(O)n(-c3ccccc3)c(=O)c3ccccc23)cc1 | 101 | /
75 | CCC(=O)N1CCc2cc(Br)cc(S(=O)(=O)N3CCC(C(=O)Nc4ccccc4F)CC3)c21 | 108 | 1
76 | Cc1ccc(CCNC(=O)c2ccc3[nH]c(C)c(C)c3c2)cc1 | 103 | /
77 | NNC(=O)Cn1ccc(C(F)(F)F)n1 | / | 4
78 | COc1ccc(-c2nc(C#N)c(N3CCC(C(N)=O)CC3)o2)cc1 | / | -18
79 | COc1ccc(CCNC(=O)c2c[nH]n3c(=O)c(Cc4ccccc4Cl)c(C)nc23)cc1OC | 103 | /
80 | CCOC(=O)C1CCN(c2c(NCCc3ccc(OC)c(OC)c3)c(=O)c2=O)CC1 | 100 | -41

no. | Sa growth 42C | Sa growth 42C second temp
73 | 100 | 81
74 | 118 | 84
75 | 97 | 89
76 | 114 | 101
77 | 98 | 94
78 | 84 | 90
79 | 0.7* | 0.3*
80 | / | /

The list goes on:
no. | canonical_smiles | GIV Gai3 FP | HCMV NEC inh
81 | COc1cc(C(=O)NN2C(=O)CSC2=S)cc(OC)c1OC | / | -25
82 | Oc1ccc(Nc2nc3ccccc3n3cnnc23)cc1 | 103 | -39
83 | Cn1nnc2cc(C(=O)NCc3ccco3)ccc21 | 102 | -5
84 | COc1ccc(C)cc1NC(=O)Cc1c(C(=O)O)c(C)cn1C | 100 | /
85 | Cc1ccc(-n2ncc(N(C)n3cccc3)c(Cl)c2=O)cc1 | 99 | -43
86 | Fc1ccccc1N1CCN(Cc2cn[nH]c2-c2ccc(Cl)cc2)CC1 | 100 | -15
87 | O=C(CSc1nc2ncccc2n2cccc12)NCc1ccc(F)cc1 | 110 | -22
88 | O=C(Nc1ccc(Cl)cc1)C1CCN(c2nc3ccccc3nc2C(F)(F)F)CC1 | 103&131 | -4

no. | Sa growth 42C | Sa growth 42C second temp
81 | 71 | 86
82 | 89 | 85
83 | 97 | 74
84 | 94 | 90
85 | 92 | 85
86 | 93 | 41
87 | / | /
88 | 77 | 87

Additional compounds:
no. | canonical_smiles | GIV Gai3 FP | HCMV NEC inh
89 | O=C(Nc1nc(-c2cccs2)cs1)c1ccc(S(=O)(=O)N2CCOCC2)cc1 | 100 | -16
90 | O=C(c1cnc2ccccc2c1Nc1ccc(Br)cc1)N1CCOCC1 | 102 | -10
91 | CCC(CC)c1nnc(NC(=O)C2COc3ccccc3O2)s1 (configuration not stated) | / | -1
92 | N#Cc1c(N)nc(SCC(=O)c2ccc(Br)cc2)c(C#N)c1-c1ccccc1 | 101 | 7

no. | Sa growth 42C | Sa growth 42C second temp
89 | 89 | 82
90 | / | /
91 | 119 | 91
92 | / | /

Screens deposited in PubChem BioAssay by ICCB-Longwood Screening Facility, Harvard Medical School.
